Screening data from PubChem BioAssay.
Choline anaer gr = inhibitors of anaerobic choline-dependent gram-negative bacterial growth. Gram-negative bacterium anaerobic choline minimal medium, absorbance growth; hits give low values; many inactives read as strong as hits in the columns shown. calls only. 0.2% of 55,000 active;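 active means growth z-score on choline under -2 at 7 or 20 h with little or no fall on glycerol, limits in tiers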;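 further: stock transfer was 300 nL into about 50 µL; the organism is E. coli; final concentration not given here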
Choline anaer gr early = also measured in Choline anaer gr; calls as there; z-score; measured here: choline growth z-score, timepoint 1;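 score of optical density at 7 h as mean of two plates; lower means less growth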
Starred values were filed as active, the others as inactive; i = inactive; & = joins results of further samples. A portion of the library; rates above refer to the full screens.

Value order – Choline anaer gr, Choline anaer gr early
> O=C(NCc1ccc2c(c1)OCO2)c1nc(-n2cnnc2)ccc1Br
    i, 1
> C=CCN(c1nc2nc(C)c(Cl)c(C)n2n1)S(=O)(=O)c1ccccc1
    i, -1
> O=c1[nH]c(=O)n([C@H]2C[C@H](O)[C@@H](CO)O2)cc1Br
    i, -1.9
> COc1ccc(NC(=O)C2CCCN(S(=O)(=O)c3cc(-c4noc(C)n4)cs3)C2)c(OC)c1 (stereo not given)
    i, -0.16
> Cc1ccc(N(C)S(=O)(=O)c2c(-c3ccccc3)csc2C(=O)n2nc(C)cc2C)cc1
    i, 1.6
> COc1ccc(-n2ccn3c(CCC(=O)NCC4CCCO4)nnc3c2=O)cc1 (stereo not given)
    i, -0.03
> CC(C)c1nnc(-c2coc(S(=O)(=O)N3CCOCC3)c2)o1
    i, -0.08
> Cc1c(-c2nnc(C(=O)N3CCCC3)o2)oc2c(C)cccc12
    i, 0.17
> COc1ccc2nc(NC3=NC(c4ccccc4)CC(=O)N3)nc(C)c2c1 (stereo not given)
    i, -0.37
> CCn1c(=O)c(N2CCN(C(=O)c3cccc(C)c3)CC2)nc2ccccc21
    i, -0.66
> Cc1cccc(NS(=O)(=O)c2c(C)sc(C)c2-c2n[nH]c(C)c2C)c1
    i, 0.99
> COc1ccc(-n2c(C)cc(CNS(=O)(=O)c3ccc4c(c3)CC(=O)N4C)c2C)cc1
    i, -0.69
> CN(C)C(=O)c1csc2nc(-c3ccc(NC(=O)Cc4ccc(F)cc4)cc3)cn12
    i, -0.55
> C=CCc1c(C)nn(-c2nc(CC(=O)Nc3cccc(C)n3)cs2)c1C
    i, 1.4
> c1cc(C2NCCc3[nH]cnc32)ccn1 (stereo not given)
    i, 0.53
> C=CCn1c(C2CCCN2C(=O)CC)nc2ccccc21 (stereo not given)
    i, 0.3
> FC(F)(F)c1nc2cc3c(cc2[nH]1)OCCO3
    i, -1.2
> Nc1cc(-c2cccc(F)c2)[nH]n1
    i, -1.2
> CN1CCN(c2ccc(-c3ccc(NS(=O)(=O)c4ccc(Br)cc4)cc3)nn2)CC1
    i, 0.15
> O=C(COc1ccccc1)Nc1ccc2nc(SCCOc3ccccc3)sc2c1
    i, 0.49
> Cc1ccc(C(=O)NCCc2sc3nc(-c4ccccc4)nn3c2C)cc1C
    i, 1
> Cc1nnc(-c2cc(NC(=O)C3CCC3)c(C)s2)o1
    i, 0.06
> O=C(NC1CCN(c2nc3ccccc3s2)CC1)C1CCN(c2cnccn2)CC1
    i, 0.07
> Cc1ccc(S(=O)(=O)N2CCCc3cc(C(=O)NCC4CCCO4)ccc32)cc1 (stereo not given)
    i, 0.28
> CCOc1ccc(-c2noc(CSc3nccn3-c3ccc(C)cc3)n2)cc1OC
    i, 2.2
> COc1cc2c(cc1OC)-c1cc(=Nc3c(C)cc(C)cc3C)n(C)c(=O)n1CC2
    i, 0.81&0.86&-1.3&0.16
> Cc1cc(C2CCCN2C(=O)c2ccc(C)s2)no1 (stereo not given)
    i, 0.05
> CC(C)CCNC(=O)c1cnc(N2CCOCC2)nc1
    i, 0.26
> COc1cccc(-c2cc3n(C)c(C)c(CCC(=O)N4CCN(C)CC4)c(=O)n3n2)c1
    i, 0.16
> O=C(Nc1ccc(F)cc1F)c1cc(-c2cccnc2)on1
    i, 0.24

Quoted at random: 4 records from the list, in no set order.
Value order – Choline anaer gr, Choline anaer gr early
> c1cc(C2NCCc3[nH]cnc32)ccn1 (stereo not given)
    i, 0.53
> Cc1ccc(N(C)S(=O)(=O)c2c(-c3ccccc3)csc2C(=O)n2nc(C)cc2C)cc1
    i, 1.6
> FC(F)(F)c1nc2cc3c(cc2[nH]1)OCCO3
    i, -1.2
> Cc1cccc(NS(=O)(=O)c2c(C)sc(C)c2-c2n[nH]c(C)c2C)c1
    i, 0.99

Returning to the listing, starting five compounds before the break.
Value order – Choline anaer gr, Choline anaer gr early
> COc1cc2c(cc1OC)-c1cc(=Nc3c(C)cc(C)cc3C)n(C)c(=O)n1CC2
    i, 0.81&0.86&-1.3&0.16
> Cc1cc(C2CCCN2C(=O)c2ccc(C)s2)no1 (stereo not given)
    i, 0.05
> CC(C)CCNC(=O)c1cnc(N2CCOCC2)nc1
    i, 0.26
> COc1cccc(-c2cc3n(C)c(C)c(CCC(=O)N4CCN(C)CC4)c(=O)n3n2)c1
    i, 0.16
> O=C(Nc1ccc(F)cc1F)c1cc(-c2cccnc2)on1
    i, 0.24
> CCC(=O)Nc1cccnc1-c1ccc(C(=O)Nc2ccc3c(c2)OCO3)cc1
    i, 0.28
> Cc1ccc(C(=O)CN(c2nc3nc(C)c(Cl)c(C)n3n2)S(=O)(=O)c2ccc(C)cc2)cc1
    i, -0.98
> COc1ccc(-n2nc(N3CCN(C(=O)c4ccc(Cl)cc4)CC3)ccc2=O)cc1
    i, -1.3
> Cc1cc(N2CCOCC2)nc2ccc(NC(=O)CC3CCCC3)cc12
    i, -1.2
> CCC(C)NC(=O)CSc1nc2cc(-c3ccccc3)[nH]c2c(=O)n1Cc1ccccc1 (stereo not given)
    i, 0.22
> O=c1cc(CN2CCN(c3ccc(F)cc3)CC2)nc2nc(-c3ccc(F)cc3)[nH]n12
    i, 0.4
> C/C(=C(/CCO)SSCC1CCCO1)N(C=O)Cc1cnc(C)nc1N (stereo not given)
    i, 0.81
> O=S(=O)(NC1CCCCC1)c1ccc(-c2cnc(C3CC3)o2)s1
    i, -0.49
> O=C(Nc1cc(Cl)ccc1O)c1noc2c1CCCCC2
    i, 1.1
> O=C(Nc1ccc2c(c1)OCO2)c1ccc(Nc2ccnc(-c3cccc(F)c3)n2)cc1
    i, -0.29
> Cn1c(CNC(=O)C2CCC2)nc2c1CN(S(=O)(=O)c1ccc(Cl)s1)CC2
    i, 0.3
> COc1cc(Nc2ncc3c(n2)CCN(S(=O)(=O)c2ccc4c(c2)CCCC4)C3)cc(OC)c1
    i, 2
> CCOc1ccc(NS(=O)(=O)c2cc(-c3nc(-c4ccccc4)cs3)n(C)c2C)cc1
    i, 0.18
> COc1ccc2nc(N(Cc3cccnc3)C(=O)c3ccc(Cl)cc3)sc2c1
    i, 0.73
> O=C(Cc1ccccc1)NCc1nc(-c2ccc3c(c2)nnn3C2CCCC2)no1
    i, -0.04
> NC(C(=O)O)c1cc(O)ccc1Cl (stereo not given)
    i, 0.44
> CC(C)Oc1ccc(-c2noc(-c3nn(-c4cccc(F)c4)ccc3=O)n2)cc1
    i, 0.74
> COc1ccc(-c2cc(=O)n3c(nc4ccccc43)[nH]2)cc1
    i, 0.65
> CNC1(c2nnnn2-c2ccccc2)CCCC1
    i, -0.58
> O=c1[nH]cnc2c1nnn2-c1cccc(Cl)c1
    i, -0.14
> COc1ccc(Cc2nc(CN3C(=O)COc4ccccc43)no2)cc1Cl
    i, 0.71
> COc1ccc(-c2nn3c(N4CCN(c5ccccn5)CC4)cc(C)nc3c2C)cc1OC
    i, 0.58
> CCC(C)Nc1cc(C(C)(C)C)nc2c(-c3ccc(F)cc3)c(C)nn12 (stereo not given)
    i, 3.1
> COc1ccc(N2CC(c3n[nH]c(=S)o3)CC2=O)cc1Cl (stereo not given)
    i, -0.76
> Cc1ccc(-n2nc(N3CCCN(C(=O)c4cccc(N(C)C)c4)CC3)ccc2=O)cc1C
    i, 1.1
> Cn1c(=O)c2nc(SCCC(=O)Nc3ccc(Cl)cc3F)n(C)c2n(C)c1=O
    i, -1.8
> COCCNc1ncnc2scc(-c3ccc(C)cc3)c12
    i, -1.1
> CC(C)C(=O)NCCC1CCN(C(=O)c2ccc(F)cc2)CC1
    i, -1.3
> COc1ccc(NC(=O)Cn2nc3c(Sc4ccccc4)nc4ccccc4n3c2=O)cc1OC
    i, 0.48
> CCOC(=O)c1[nH]c(C)c(CCC(=O)N2CCCC(C(=O)NC3CCCCC3)C2)c1C (stereo not given)
    i, -1.2

Later entries.
Value order – Choline anaer gr, Choline anaer gr early
> Cc1nc2scc(C)n2c(=O)c1NC(=O)c1ccccc1Br
    i, 0.63
> CCS(=O)(=O)N1CCc2cc(C(=O)N3CCN(c4ccccc4)CC3)ccc21
    i, 0.42
> Cc1ccc(-c2nn3c(=O)cc(CN4CCN(C(=O)Nc5cc(Cl)ccc5C)CC4)nc3s2)cc1
    i, -1.4
> Cc1ccc(NS(=O)(=O)c2cc(-c3nc(C(C)(C)C)cs3)cs2)cc1
    i, 0.41
> CCC(=O)NC1Cc2ccccc2C(c2ccccc2)C1 (stereo not given)
    i, -0.24
> CCC(C)NC(=O)c1cc2n(n1)CCCC2 (stereo not given)
    i, -0.33
> CCc1ccc(-c2ccc(=O)[nH]n2)cc1S(=O)(=O)NCC1CCCO1 (stereo not given)
    i, -0.63
> COc1cccc(CN2CCCN(Cc3ccc(Cl)cc3)S2(=O)=O)c1
    i, 0.66
> Cc1cc(F)ccc1Nc1c(C(=O)N2CCCCC2)cnc2ccc(F)cc12
    i, 0.07
> CS(=O)(=O)N1CCCC1c1nnc(C(=O)Nc2ccc3c(c2)OCO3)s1 (stereo not given)
    i, -0.95
> Cc1ccc(-c2noc(C3CCCN3C(=O)CNC(=O)C(c3ccccc3)c3ccccc3)n2)cc1 (stereo not given)
    i, 2
> CCc1ccc(OC(C)C(=O)NCCc2csc(-c3ccc(OC)cc3)n2)cc1 (stereo not given)
    i, -0.69
> CC1CS(=O)(=O)N(c2ccc(S(=O)(=O)NC3CC3)cc2)C1=O (stereo not given)
    i, 0
> CCCCOc1ccc(S(=O)(=O)Nc2ccc(-c3cn4ccccc4n3)cc2)cc1
    i, 1.4
> Cc1cc2c(cc1S(=O)(=O)N1CCCC1)OCC(=O)N2Cc1noc(C2CC2)n1
    i, 0.05
> Cc1ccc(C(=O)Nc2ccc(C(=O)N3CCC(C(=O)NC(C)C)CC3)cc2)cc1
    i, 0.81
> O=C(CN1C(=O)CN(C(=O)NCc2ccccc2)c2ccccc21)NCCCN1CCOCC1
    i, -0.08
> COc1ccc(C2CC(=O)C3=C(C2)Nc2onc(C)c2C3c2cccc(OC)c2OC)cc1OC (stereo not given)
    i, 0.44
> COc1ccc(S(=O)(=O)Nc2ccc3nncn3n2)cc1
    i, -0.11
> O=C(NC1CCCCC1)N1CCc2cc(S(=O)(=O)N3CCOCC3)ccc21
    i, -2.1
> CC(C)NC(=O)CCCCn1c(=O)c2ccccc2n(CC(=O)NCc2ccccc2Cl)c1=O
    i, -0.79
> O=C(CSc1nc(-c2ccccc2)nc2c1Cc1ccccc1O2)Nc1ccc2c(c1)OCCO2
    i, 0.02
> Cc1ccc(-n2c(SCc3nc(-c4ccc(F)cc4)no3)nc3cc4c(cc3c2=O)OCO4)cc1
    i, -1.2
> CC(C)NC(=O)C1CCCN1C(=O)c1cccc(NS(=O)(=O)c2ccc3c(c2)CCCC3)c1 (stereo not given)
    i, -0.1
> O=C(O)/C=C/c1ccc(O)c(O)c1
    i, 0.64
> CC1CCCCN1S(=O)(=O)c1ccc2c(c1)CCC(=O)N2CC(=O)NCc1ccc2c(c1)OCO2 (stereo not given)
    i, 0.71
> CCN1CCN(c2nc(-c3ccccc3)no2)CC1
    i, -1.3
> Cc1cc(NC2CCCC2)n2ncnc2n1
    i, -0.52
> c1ccc(OCc2nn3c(-c4ccc5ccccc5n4)nnc3s2)cc1
    i, 1.4
> COc1ccc2c(c1)C=C(C(=O)N1CCCCC1)CO2
    i, -0.67

The listing continues:
Value order – Choline anaer gr, Choline anaer gr early
> Cc1cccc(NC(=O)c2nnn(-c3ccc4noc(-c5ccccc5)c4c3)c2C)c1
    i, -0.28
> CCCCc1ccc(N2CCn3c2nc2c3c(=O)n(CC(=O)O)c(=O)n2C)cc1
    i, -1.7
> CCSc1nnc2c(n1)OC(c1ccccc1C)N(C(C)=O)c1ccccc1-2 (stereo not given)
    i, -0.5
> CCNC(=O)N1CCc2cc(S(=O)(=O)N3CCCC3)ccc21
    i, -0.81
> O=C1Nc2ccccc2Oc2ccc(S(=O)(=O)N3CCCc4ccccc43)cc21
    i, 1.6
> N#Cc1cccc(CN2CCC3(CC2)N=C(C2CC2)NO3)c1
    i, 0.09
> Cc1c(C)n(-c2ccccc2)c2nc(C(=O)Nc3cccc(F)c3)nc(N3CCCC3)c12
    i, 1.1
> COc1ccc(-c2csc3ncnc(NCC4CCCO4)c23)cc1 (stereo not given)
    i, 0.1
> CC(C)c1csc(C2CCCN(C(=O)C3CC3)C2)n1 (stereo not given)
    i, 1.2
> Cc1ccc(C)c(N2CCN(S(=O)(=O)c3cc(-c4nc(C(C)C)cs4)sc3C)CC2)c1
    i, 0.54
> CC1CCN(C(=O)c2cc3c(s2)-c2ccc(Cl)cc2S(=O)(=O)C3)CC1
    i, -0.14
> Cc1cc(Nc2c3c(nc4ncnn24)CCC3)ccc1Br
    i, -0.6
> O=C1NCCN1Cc1ccccc1F
    i, -1.4
> COc1ccc(-n2ccnc(SCC(=O)Nc3ccc(F)cc3F)c2=O)cc1
    i, -1.4
> CCn1c(=O)c(N2CCC(C(=O)NCCc3c[nH]c4ccc(OC)cc34)CC2)nc2cccnc21
    i, 0.12
> CCCCn1c(SCC(=O)NCc2ccccc2)nc2c(sc3ccccc32)c1=O
    i, 0.62
> CCCc1cc(Sc2ccc(NC(=O)c3ccccc3)cc2)n2ncnc2n1
    i, -0.15
> CCc1cc(Nc2ccc(N3CCOCC3)c(Cl)c2)n2ncnc2n1
    i, 0.14
> Cn1c(SCc2ccc(Br)cc2)nnc1-c1ccc2c(c1)OCCCO2
    i, 1.8
> CCC(C)NC(=O)c1cc(COc2ccc(NC(=O)c3ccccc3)cc2)on1 (stereo not given)
    i, -0.84
> CCOc1cccc(CN2C(=O)c3ccccc3CC2(C)C(=O)NCc2cccc(OC)c2)c1 (stereo not given)
    i, 0.91
> CN(C)c1ccc(NC(=O)c2nc(-c3ccccc3)n(-c3ccc(Cl)cc3)n2)cc1
    i, 0.79
> O=C(C1CCCN(c2ncc(-c3cccc(F)c3)cn2)C1)N1CCN(Cc2ccccc2)CC1 (stereo not given)
    i, -0.22
